DT40 TDP1 CPT – DT40-hTDP1 cell growth loss with CPT; chicken DT40 Tdp1-/-;hTDP1 cells + 20 nM CPT, ATP luminescence, 48 h; Potency, µM (top dose mostly 46.2 µM), for the others: top-dose activity change, negative = growth inhibition, hits mostly inhibitors; 420,000 tested, 12% active; AID 686979; also: nearly all actives have a fitted effect of over 55% in size
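Cell growth measured by CellTiter-Glo luminescence after a minimum 48 h, 37 C compound exposure with 20 nM CPT in Tdp1-knockout DT40 cells stably expressing hTDP1, seeded 400/well; qHTS titration format.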
FEN1 inh – blocks human flap endonuclease 1; P39748; Recombinant FEN1 flap cleavage, fluorescence, 15 min; Potency, µM (titrated, usually from 114 µM), for inactives: at the highest dose activity change, negative = inhibition, hits mostly inhibitors; 390,000 tested, 0.35% active; AID 588795; also: nearly all actives have a fitted effect of over 65% in size
Target sequence (P39748 whole entry, looked up): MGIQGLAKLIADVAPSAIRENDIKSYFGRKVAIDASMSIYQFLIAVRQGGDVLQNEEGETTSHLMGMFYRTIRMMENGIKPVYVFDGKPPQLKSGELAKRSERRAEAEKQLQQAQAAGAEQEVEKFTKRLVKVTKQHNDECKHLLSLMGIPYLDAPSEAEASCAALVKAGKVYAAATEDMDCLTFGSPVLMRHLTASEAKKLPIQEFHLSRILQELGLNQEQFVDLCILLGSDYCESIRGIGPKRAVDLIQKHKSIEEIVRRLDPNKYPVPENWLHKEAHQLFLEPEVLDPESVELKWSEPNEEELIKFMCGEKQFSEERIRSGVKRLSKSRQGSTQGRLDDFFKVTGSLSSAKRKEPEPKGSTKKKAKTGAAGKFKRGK
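FEN1 at 10 nM, compound pretreatment for 15 min (room temperature), 50 nM final substrate to initiate; endpoint reads at 0 and 15 min; DMSO-only plates used as vehicle background.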
Numbers without * were called inactive; u = inconclusive; x = no result given; [ ] = remark or other dose. Calls follow the shape of the dose curve; as a rule, active = well fitted curve in the direction sought with a large enough effect; inconclusive = small, poorly fitted or top-dose-only effect, or another doubt; inactive = no such curve, though single readings can be large; an effect the other way counts as inactive or inconclusive. % is scaled to controls: 0 for no effect and ±100 for the full control effect; potency is read from the fitted curve at half-maximal effect.

SMILES | DT40 TDP1 CPT | FEN1 inh
Cc1cccc(C(=O)NNC(=O)c2ccccc2-n2cccc2)c1 | -10% | -8%
O=C(/C=C/c1ccc(O)c(O)c1)c1ccccc1O | 12µM* | -24%
CC(C(=O)Nc1ccc(C#N)cc1)N(C)CC(=O)Nc1cccc(F)c1 (stereo not given) | -15% | 5%
COC(=O)CS(=O)(=O)c1cccc2cccnc12 | u | -2%
CCC(C)OC(=O)C[N+](C)(C)CCOC1CC2CCC1(C)C2(C)C (stereo not given) | 1.2µM* | -11%
CCCCCC(=O)NCc1c(C(F)(F)F)nn(C)c1N1CCOCC1 | 21% | -7%
CCOc1ccccc1NC(=O)CCC(=O)O | -14% | 1%
COCc1ccc(CN2CCC(Oc3ccc(C(=O)NCc4ccccn4)cc3)CC2)o1 | u | 12%
Cc1ccc(S(=O)(=O)N(CCc2ccccc2)CC(=O)Nc2ccccc2C)cc1 | x | -22%
COc1cccc(-c2nc(CSCC(=O)N3CCc4ccccc43)c(C)o2)c1 | -7% | -12%
COc1ccc(OC)c(-n2c(C)cc(/C=C3\C(=N)N4N=C(CC(=O)N5CCOCC5)SC4=NC3=O)c2C)c1 | 12% | -10%
COc1ccc(NS(=O)(=O)c2ccc(NS(C)(=O)=O)cc2)cc1 | -27% | 47%[activator]
CCc1ccc(NS(=O)(=O)c2ccc(C(=O)N(C)C)s2)cc1 | 18µM* | -6%
COC(=O)C1CCN(Cc2ccc(C)cc2)CC1 | -13% | -2%
COCCNC(=O)c1ccccc1-c1nc(-c2ccccc2Cl)no1 | -20% | 1%
CC(C(=O)Nc1ccon1)N1C(=O)c2ccccc2S1(=O)=O (stereo not given) | -6% | 4%
Cc1cc(N2CCOCC2)nc2ccc(NC(=O)CCC(=O)N3CCCCC3)cc12 | -13% | -1%
COc1nccnc1NS(=O)(=O)c1ccc(NC(=O)c2ccc(F)cc2)cc1 | 15% | -5%
Cc1nnc2n1N=C(c1ccc(F)cc1F)CS2 | -5% | -3%
O=C1N(Cc2cccc(Cl)c2)C[C@@H]2C[C@@H](c3c[nH]c4ccccc34)N3CCC[C@@]123 | u | -15%
COC(=O)c1ccc2c(=O)n(CCCCCC(=O)N3CCN(c4ccc(OC)cc4)CC3)c(=O)[nH]c2c1 | u | 15%
COC(=O)c1ccc(C2C(C(=O)Nc3ccccc3C)=C(C)Nc3ncnn32)cc1 (stereo not given) | 0% | -10%
COc1ccc(-c2cc(C(F)(F)F)nc(SCC(=O)Nc3ccc4c(c3)OCO4)n2)cc1OC | 2% | 7%
CC(CCc1ccccc1)NC(=O)CN1CCN(Cc2ccc(Cl)cc2)C1=O (stereo not given) | u | 13%
Cc1c(C(=O)N2CCN(C)CC2)oc2c1C(=O)CC(C)(C)C2 | -26% | 12%
CCNCC(=O)N1c2ccccc2CCc2ccc(NC(=O)OCC)cc21 | u | 3%
CCOc1cc(N2CCOCC2)c(OCC)cc1NC(=O)COC(=O)CCOc1ccc(C)cc1 | u | -17%
O=C1c2cccnc2C(Nc2ccccc2)N1Cc1ccco1 (stereo not given) | -5% | 13%
CC(=O)Nc1ccc(S(=O)(=O)N2CCN(c3cc(C)nc4ncnn34)CC2)cc1 | 14% | -8%
O=C(NCCc1ccccc1)C(=O)NN=C1CCCC1 | u | 0%

At a glance, 3 of the compounds above:
SMILES | DT40 TDP1 CPT | FEN1 inh
O=C1c2cccnc2C(Nc2ccccc2)N1Cc1ccco1 (stereo not given) | -5% | 13%
CC(=O)Nc1ccc(S(=O)(=O)N2CCN(c3cc(C)nc4ncnn34)CC2)cc1 | 14% | -8%
O=C(NCCc1ccccc1)C(=O)NN=C1CCCC1 | u | 0%

4 of the compounds above, field by field:
CCOc1cc(N2CCOCC2)c(OCC)cc1NC(=O)COC(=O)CCOc1ccc(C)cc1
  DT40 TDP1 CPT = u | FEN1 inh = -17%
O=C1c2cccnc2C(Nc2ccccc2)N1Cc1ccco1 (stereo not given)
  DT40 TDP1 CPT = -5% | FEN1 inh = 13%
CC(=O)Nc1ccc(S(=O)(=O)N2CCN(c3cc(C)nc4ncnn34)CC2)cc1
  DT40 TDP1 CPT = 14% | FEN1 inh = -8%
O=C(NCCc1ccccc1)C(=O)NN=C1CCCC1
  DT40 TDP1 CPT = u | FEN1 inh = 0%

Next part.
SMILES | DT40 TDP1 CPT | FEN1 inh
Cn1c(N)c(C(=O)COC(=O)CCc2nc3ccccc3s2)c(=O)n(C)c1=O | 7% | 12%
COc1ccc(-c2csc(-c3ccccc3)n2)c(OC)c1 | -3% | 1%
CCOC(=O)[C@@H]1[C@H]2COc3ccccc3[C@@H]2N2C(=O)N(c3ccc(C)cc3)C(=O)[C@@]12C | 2% | -14%
Nc1nc(-c2cc(-c3ccccc3)no2)cs1 | 0% | -20%
COc1cccc(COC(=O)CSCC(=O)Nc2cccc(C)c2)c1OC | 2% | -11%
COc1ccc2cc(CCN3C(=O)c4ccccc4C3=O)c(=O)[nH]c2c1 | -6% | -15%
COc1ccc(N2CCN(C(=O)CCc3nc(-c4ccc(C)cc4)no3)CC2)cc1 | u | 4%
Cc1ccc(Nc2nnc(SC(C)C(=O)NCC3CCCO3)s2)cc1C (stereo not given) | u | -16%
CCOC(=O)Cc1csc(NC(=O)c2ccc(Cl)s2)n1 | u | 15%
Cn1c(CO)cnc1SCc1ccc([N+](=O)[O-])cc1 | -19% | 8%
O=C(Nc1cccnc1)C12CC3CC(CC(C3)C1)C2 | 1% | -3%
Cc1nn(-c2ccccc2)c(Cl)c1C(=O)Nc1ccc(N2CCOCC2)cc1 | 24% | 1%
Cc1ccc(C2CC(c3ccccc3)=NN2c2ccccc2)o1 (stereo not given) | -25% | -19%
CCOCCCNC(=O)c1cc(=O)n(Cc2cccc(C)c2)c2ccccc12 | u | 5%
O=C(OCc1nnc(-c2ccccc2)o1)c1cc(=O)[nH]c2ccccc12 | -1% | -7%

Among those listed so far, 5 contain a Cl atom:
SMILES | DT40 TDP1 CPT | FEN1 inh
COCCNC(=O)c1ccccc1-c1nc(-c2ccccc2Cl)no1 | -20% | 1%
O=C1N(Cc2cccc(Cl)c2)C[C@@H]2C[C@@H](c3c[nH]c4ccccc34)N3CCC[C@@]123 | u | -15%
CC(CCc1ccccc1)NC(=O)CN1CCN(Cc2ccc(Cl)cc2)C1=O (stereo not given) | u | 13%
CCOC(=O)Cc1csc(NC(=O)c2ccc(Cl)s2)n1 | u | 15%
Cc1nn(-c2ccccc2)c(Cl)c1C(=O)Nc1ccc(N2CCOCC2)cc1 | 24% | 1%

The main list resumes; the 2 compounds before the break are reprinted first.
SMILES | DT40 TDP1 CPT | FEN1 inh
CCOCCCNC(=O)c1cc(=O)n(Cc2cccc(C)c2)c2ccccc12 | u | 5%
O=C(OCc1nnc(-c2ccccc2)o1)c1cc(=O)[nH]c2ccccc12 | -1% | -7%
CC1CCCCN1C(=O)CCc1nnc(Cc2c[nH]c3ccccc23)o1 (stereo not given) | -21% | 20%
COc1ccc(NC(=O)Nc2ccc(C)cc2Br)c(OC)c1 | 5% | 13%
COCCNC(=O)C1CC(c2ccc(F)cc2)=NO1 (stereo not given) | 20% | 1%
CC(c1ccccc1)N1CC(C(=O)Nc2nccs2)CC1=O (stereo not given) | 3% | 4%
O=C(c1ccc(S(=O)(=O)c2ccccc2Cl)c([N+](=O)[O-])c1)N1CCCCCC1 | 21µM* | -18%
COc1cccc(CN2CC(C(=O)NCCCCc3ccccn3)CCC2=O)c1 (stereo not given) | 9% | 1%
Brc1ccc2nc(CSc3ncn[nH]3)cn2c1 | -18% | -5%
O=C(Cn1c(=O)sc2ccccc21)Nc1ccc(O)cc1 | -18% | 4%
CC(C)c1nnc(NC(=O)CCC(=O)N2CCN(c3ccc(Cl)cc3)CC2)s1 | u | -13%
O=C(CCn1cccn1)Nc1ccc2c(c1)OCCO2 | -1% | -8%
CCOC(=O)/C(O)=C(\C#N)c1nc2ccccc2[nH]1 | -10% | -1%
CCN(CC)CCN(Cc1cc2cc3c(cc2[nH]c1=O)OCO3)C(=S)NCCOC | -9% | -1%
Cc1cc2ccc3ccccc3c2cc1CN(C)C | u | -27%
CC(C)OC(=O)c1cccc(NC(=O)c2ccccc2)c1 | 13µM* | -17%
CC(NC(=O)c1cccc(F)c1)C(c1cccs1)N1CCN(C)CC1 (stereo not given) | 5% | 2%
O=C(NC(=S)N1CCN(Cc2ccc3c(c2)OCO3)CC1)c1ccc(Cl)cc1 | u | -12%
O=C(O)c1cn(Cc2ccccc2)nc1-c1cccnc1 | 3% | 19%
Nc1c(C(=O)O)sc2nc(-c3ccccc3)cc(-c3ccccc3)c12 | -12% | -7%
CCOC(=O)c1c(NC(=O)CSc2nc3ccccc3o2)sc(C(C)=O)c1C | u | -12%
CCOC(=O)CCc1c(C)c2ccc(OC3CCCCC3=O)cc2oc1=O (stereo not given) | 1% | 7%
COc1ccc(S(=O)(=O)N2CCOCC2)cc1C(=O)NCc1ccccc1CN1CCCC1 | -2% | 1%
O=C(CCCc1c[nH]c2ccccc12)Nc1ncccc1O | -6% | -2%
O=S(=O)(Nc1nnc(C2CCCCC2)s1)c1ccc(F)cc1 | 20% | -6%
CN1C(=O)C(O)(C2CCCCCC2=O)c2ccccc21 (stereo not given) | 12% | 17%
COC(=O)c1ccccc1NC(=O)c1cc[n+]([O-])cc1 | 1% | 1%
CCN(C[C@H]1N[C@@](C)(C(=O)OC)[C@H]2C(=O)N(C)C(=O)[C@@H]12)C(=O)Nc1ccc(C)cc1 | 12% | 4%
CCOc1c(Br)cc(C(=O)NCCCn2ccnc2)cc1OC | -3% | -9%
O=C(c1ccco1)N1CCN(c2cc(=O)n(C3CCCCC3)c(=O)[nH]2)CC1 | -6% | 0%
O=C1N/C(=C\c2ccccc2)C(O)=C1C=NCc1ccccc1 | u | -3%
Cc1ccc(-c2sc(C)nc2CC(=O)O)cc1 | 1% | -4%
CCCN(CCC)c1ccc(/C=N/NC(=O)CN2CCOCC2)cc1 | 2% | -16%
O=C(NNC(=O)C12CC3CC(CC(Cl)(C3)C1)C2)c1ccncc1 | 6% | 8%
Cc1ccc(S(=O)(=O)N=S(CC2CC2(Cl)Cl)CC2CC2(Cl)Cl)cc1 (stereo not given) | 23µM* | -8%
CCCNC(=O)C1Cc2cc(S(=O)(=O)N3CCCCCC3)ccc2N1C(C)=O (stereo not given) | -22% | 0%
CC(=O)c1cccc(S(=O)(=O)N2CCC(c3nc4ccccc4[nH]3)CC2)c1 | -21% | -1%
O=C(c1ccco1)N1CCN(Cc2ccccc2Br)CC1 | u | 4%
CCCc1nn2c(=O)cc(CSCC(=O)Nc3ccccc3OC)nc2s1 | -10% | 3%
COc1ccc(/C=C/C(=O)Nc2ccccc2C(=O)N2CCCC2)cc1 | -1% | 5%
CC(=O)c1ccc(-c2nnc(CCC(=O)N(C)Cc3cccc4cnccc34)o2)s1 | -21% | 0%
Cc1nnc(NC(=O)CN2CCN(Cc3ccc(F)cc3Cl)CC2)s1 | -22% | -1%
O=C(Cc1ccc(NC2=NC3CS(=O)(=O)CC3S2)cc1)NCc1ccccc1Cl (stereo not given) | 6% | -1%
COc1cccc(C(=O)OCCN2CCOCC2)c1 | -13% | 4%
Cc1ccc(NC(=O)NC(=O)N(C2CCCCC2)S(=O)(=O)c2ccccc2)cc1 | -10% | -1%
Cc1ccc(NC(=O)CCNS(=O)(=O)c2ccc3c(c2)CCC(=O)N3)c(Br)c1 | 5% | -8%
COc1ccc(OCC(O)CN2CCN(Cc3ccc4c(c3)OCO4)CC2)cc1 (stereo not given) | -2% | 2%
CCc1ccc(N(CC(=O)NCc2ccc(OC)cc2)C(=O)CCC(=O)Nc2ccccn2)cc1 | -3% | -5%
O=C(COC(=O)c1cccc(S(=O)(=O)N2CCOCC2)c1)NCc1ccccc1 | 2% | 2%
O=C(C1CCC(=O)N(C2CCCC2)C1)N1CCN(Cc2cccc(F)c2)CC1 (stereo not given) | -13% | 0%
O=C(CCCc1nc2ccccc2s1)Nc1ccc(N2CCOCC2)cc1 | -17% | 22%
NC(=O)CCS(=O)(=O)CCN1CCN(S(=O)(=O)c2ccc3c(c2)CCC3)CC1 | 8% | 2%
Cc1ccc(NC(=O)c2cn3c4c(ccc(Cl)c4c2=O)OC(C)C3)cc1C (stereo not given) | 0% | -5%
N#C/C(=C\C=C\c1ccccc1)C(=O)Nc1ccccc1 | -6% | -3%
COc1ccc(OC)c(CNC(=O)c2ccc(C)c(NC(=O)c3nsc4ccccc34)c2)c1 | 18µM* | 12%
Cc1ccc(-c2cc(-c3ccc(F)cc3)n[nH]2)c(O)c1 | u | -13%
Cc1ccc(CNC(=O)COC(=O)c2ccc(S(=O)(=O)N3CCCCCC3)cc2)cc1 | u | 5%
CSc1nn(Cc2ccc(Cl)cc2)c(N(C(C)=O)C(C)=O)c1S(=O)(=O)c1ccccc1 | 16µM* | 4%

Screening data deposited in PubChem BioAssay by National Center for Advancing Translational Sciences (NCATS).

A portion of the library; most or all hits stand in other tables.
